# Bioassay records from PubChem BioAssay.
# Vaccinia Venus = vaccinia inhibition (Venus reporter); Vaccinia virus Venus reporter expression, fluorescence; Potency, µM (series often up to 36.5 µM), without a hit: at the highest dose activity change, negative = inhibition, most hits filed as inhibitors; actives 0.46% (n = 330,000); AID 720580; active means well fitted inhibition curve with a large enough effect; inconclusive means small, poorly fitted or top-dose-only effect; inactive means no such curve, though single readings can be large or run the other way; tested in A549 cells; further: nearly all actives have a fitted effect of over 30% in size; inactives centre near -10
# VACV mCherry inh = inhibitors of vaccinia virus infection (mCherry reporter signal); AID 720579; Vaccinia virus mCherry reporter infection, fluorescence; about a quarter of the inactives have no number; actives 0.63% (n = 310,000); Potency, µM (doses to about 36.5 µM), for inactives: at the top dose activity change, negative = inhibition, hits mostly inhibitors; active = well fitted inhibition curve with a large enough effect; inconclusive = small, poorly fitted or top-dose-only effect; inactive = no such curve, though single readings can be large or run the other way; tested in A549 cells; further: nearly all actives have a fitted effect of over 35% in size; inactives centre near -10
# Numbers without * were called inactive; i = inactive; ? = inconclusive; · = no result given; & = joins results of further samples. On the % scale 0 is the no-effect control and ±100 the full control effect; potency means the concentration at half of the fitted maximal effect.
SMILES,Vaccinia Venus,VACV mCherry inh
O=C1C(c2ccccc2)=NCCN1C(c1ccc(F)cc1)c1nc2ccccc2[nH]1 (stereo not drawn),12%,5%
COc1ccc(-c2nn(CC(=O)NCCc3ccccc3)c(=S)n2C)cc1,-13%,-22%
O=C(Nc1ccc2c(c1)OCCO2)C1CCN(C(=O)c2ccccc2)CC1,-8%,i
CC1(c2nnnn2Cc2ccccc2)CCC(=O)N1Cc1ccco1 (stereo not drawn),1%,10%
O=C1C=C(OCCF)CC(c2ccccc2C(F)(F)F)O1 (stereo not drawn),16%,-11%
Cc1nc(Cl)c(C(=O)NCc2ccccc2)c(C)c1[N+](=O)[O-],-15%,-1%
N#Cc1ccc(COc2cccc3cccnc23)cc1,-24%,-24%
COc1ccc(-c2csc(C(O)(c3ccccc3)C(F)(F)F)n2)cc1 (stereo not drawn),-24%,14%
CCCc1cnc2c(c1SCc1ccc(C(F)(F)F)cc1)c(=O)n(C)c(=O)n2C,-16%,-17%
CCCCNC(=O)C(Cc1ccccc1)NS(=O)(=O)c1ccc2c(c1)c(=O)n(C)c(=O)n2C (stereo not drawn),-6%&-6%,-15%
C=CCn1c(Cc2c[nH]c3ccccc23)n[nH]c1=S,-7%,-15%
Cc1ccc(CSc2n[nH]c(N)n2)cc1,1%,-6%
COC(=O)C1=C(c2ccccc2)c2ccccc2S(=O)(=O)N1CC(=O)Nc1ccccc1Cl,-13%,-24%
O=C(NC1CCCCC1)C(c1cccnc1)N(C(=O)CCl)c1cccc(Cl)c1 (stereo not drawn),?,?
O=C(CSc1nc2ccccc2c(=O)n1-c1ccc(F)c(Cl)c1)Nc1ccc2c(c1)CCC2,-2%,i
Cc1cc[n+](-c2[nH]c(=O)sc2/C=N/N=C(\[O-])CCn2c3ccccc3c3ccccc32)cc1,-12%,i
Cc1ccc(-c2nc(CCNC(=O)C(=O)Nc3ccc(C)cc3C)cs2)cc1,?,?
COCCCNC(=O)c1oc2c(c1C)-c1nn(Cc3ccc(Cl)cc3)cc1CC2,-20%,-30%
Cc1ccc(S(=O)(=O)N2CCC(=O)N(C(COCc3cccc(Cl)c3)Cc3ccccc3)CC2)cc1 (stereo not drawn),-27%,-12%
CC(=O)N1CCc2cc(S(=O)(=O)CCC(=O)Nc3ccc(C)cc3Br)ccc21,-18%,?
COc1ccccc1CNC(=O)CCCn1c(=O)c2cccn2c2ccccc21,-11%,i
COc1ccc(CCNC(=O)c2ccc3c(c2)nc2n3CCCCC2)cc1OC,-7%,-10%
COc1ccc(CCn2c(C)cc(C(=O)COC(=O)c3ccc(O)cc3O)c2C)cc1,-5%,?
Cc1sc(NC(=O)CN2C(=O)NC3(CCCC3)C2=O)nc1-c1ccc(F)cc1,-28%,?
CCOC(=O)CSc1nc(C)c(Oc2ccc(Cl)cc2Cl)c(=O)[nH]1,-13%,-2%
CCc1nn(-c2ccccc2)c(N)c1-c1ccc(OC)c(OC)c1,-11%,-4%
O=C1C=C(c2ccccc2)OC(c2ccccc2)O1 (stereo not drawn),-19%,i
O=C(CSc1nnc(CNC(=O)c2c(F)cccc2Cl)o1)Nc1ccc2c(c1)OCO2,-2%,i
CC(C)Cc1ccc(C(C)C(=N)N)cc1 (stereo not drawn),-19%,-25%
O=C(Nc1ccc(Cl)cc1C(F)(F)F)c1ccccc1,-6%,i
CC(=O)c1c(C(C)=O)c(C)n(-c2nc(-c3cccs3)c(C)s2)c1C,-5%,-11%
Cc1ccc(C)c(NC(=O)CCNC(=O)N2C[C@H]3C[C@@H](C2)c2cccc(=O)n2C3)c1,6%,0%
COc1ccccc1C(=O)NCC(=O)NNC(=O)C1COc2ccccc2O1 (stereo not drawn),-11%,-16%
CCOc1ccc(-c2cc(C(F)(F)F)c(C#N)c(SCC(=O)Nc3ccccc3)n2)cc1,9%,-4%
COc1ccc(S(=O)(=O)N2CCOCC2)cc1NC(=O)COC(=O)C1COc2ccccc2O1 (stereo not drawn),-12%,-13%
C[C@@H]1CN([C@H](C)CO)C(=O)c2cc(-c3ccccc3)cnc2O[C@@H]1CN(C)C(=O)C1CCOCC1,-16%,-17%
Cc1nc(C)c(C(=O)C2=C(O)C(=O)N(CCN3CCOCC3)C2c2cccs2)s1 (stereo not drawn),-10%,-20%
CC(C)c1nc(NCC2CCCO2)c(C#N)c2c1COC(C)(C)C2 (stereo not drawn),-21%,-18%
O=C(CSc1ccccn1)Nc1cccc(S(=O)(=O)N2CCCC2)c1,-15%,-15%
Cc1ccccc1OCCNC(=O)/C=C/c1ccccc1,-5%,-7%
Cc1ccc(Nc2c(F)c(F)c(F)c(F)c2C(=O)O)c(C)c1,-15%,i
COc1ccc(CNC(=O)C2CCCN(S(=O)(=O)c3ccc4c(ccn4C)c3)C2)c(OC)c1 (stereo not drawn),-10%,-15%
C=CCN1C(=NC(=O)CC)SC2CS(=O)(=O)CC21 (stereo not drawn),-14%,-12%
Fc1cnc(Cl)nc1N1CCN(c2ccccc2)CC1,6%,-49%
Cc1ccccc1NC(=O)C1CCCN(c2nnc(N3CCCC3=O)s2)C1 (stereo not drawn),-5%,-6%

# Entries from the list above with fluorine:
SMILES,Vaccinia Venus,VACV mCherry inh
O=C1C(c2ccccc2)=NCCN1C(c1ccc(F)cc1)c1nc2ccccc2[nH]1 (stereo not drawn),12%,5%
O=C1C=C(OCCF)CC(c2ccccc2C(F)(F)F)O1 (stereo not drawn),16%,-11%
COc1ccc(-c2csc(C(O)(c3ccccc3)C(F)(F)F)n2)cc1 (stereo not drawn),-24%,14%
CCCc1cnc2c(c1SCc1ccc(C(F)(F)F)cc1)c(=O)n(C)c(=O)n2C,-16%,-17%
O=C(CSc1nc2ccccc2c(=O)n1-c1ccc(F)c(Cl)c1)Nc1ccc2c(c1)CCC2,-2%,i
Cc1sc(NC(=O)CN2C(=O)NC3(CCCC3)C2=O)nc1-c1ccc(F)cc1,-28%,?
O=C(CSc1nnc(CNC(=O)c2c(F)cccc2Cl)o1)Nc1ccc2c(c1)OCO2,-2%,i
O=C(Nc1ccc(Cl)cc1C(F)(F)F)c1ccccc1,-6%,i
CCOc1ccc(-c2cc(C(F)(F)F)c(C#N)c(SCC(=O)Nc3ccccc3)n2)cc1,9%,-4%
Cc1ccc(Nc2c(F)c(F)c(F)c(F)c2C(=O)O)c(C)c1,-15%,i
Fc1cnc(Cl)nc1N1CCN(c2ccccc2)CC1,6%,-49%

# Full records, looked up by structure. Order of values: Vaccinia Venus, VACV mCherry inh
# Results for `O=C(CSc1ccccn1)Nc1cccc(S(=O)(=O)N2CCCC2)c1` → -15%, -15%
# Results for `Cc1ccccc1OCCNC(=O)/C=C/c1ccccc1` → -5%, -7%

# Next section.
SMILES,Vaccinia Venus,VACV mCherry inh
Cc1c(C)c2ccc(OCC(=O)N3CCC(C(=O)O)CC3)c(C)c2oc1=O,3%,17%
COc1ccc(NC(=O)c2nnn(Cc3nc(-c4cc(Br)ccc4OC)oc3C)c2C)cc1,-24%,-23%
Cc1ccc(Oc2ccc(NC(=O)Cn3ccsc3=N)cc2)cc1,-24%,?
COc1ccc(C(=O)NNC(=O)c2cc3cc([N+](=O)[O-])ccc3oc2=O)cc1OC,-7%,-15%
NC(=O)CC(NC(=O)Cc1ccc(Br)cc1)c1ccc(NCCN2CCCC2)c([N+](=O)[O-])c1 (stereo not drawn),-10%,-6%
CCOc1ccc(NC(=O)CSc2oc(-c3ccco3)nc2S(=O)(=O)c2ccc(Cl)cc2)cc1,-7%,-18%
C=C1C(=O)[C@@]23C[C@H]4[C@@H]5[C@@]6(C)CCC[C@@]57[C@@H]2[C@@H](O)[C@@H]1C[C@H]3[C@H]7N4C6,?,?
CCOC(=O)[C@]12Cc3cc(C)ccc3[C@H]1N(C)C(=O)c1ccccc12,4%,i
Cc1cccc(NC(=S)N(Cc2ccco2)C(C)c2cccs2)c1 (stereo not drawn),-11%,?
COc1ccc(/C(=C\Nc2ccc(C)c(C)c2)C(C)=O)cc1OC,-4%,-4%
Cc1cc(N2CCOCC2)nc2ccc(Cl)cc12,-16%,i
COc1ccccc1NC(=O)c1ccc(Br)o1,-6%,-23%
CCCCOc1ccc(NC(=S)Nc2cc(C)nc(SCCCC)n2)cc1,-16%,-10%
CCC(=O)N1CCc2cc(S(=O)(=O)N3CCN(c4cc(C)ccc4C)CC3)ccc21,-10%,i
COc1cccc(CNC(=O)CCc2c(C)nn(-c3ccc(N4CCOCC4)nn3)c2C)c1,-5%,-8%
COC(=O)c1ccc(NC(=O)CSc2nc3ccc(N4C(=O)C5C6C=CC(C6)C5C4=O)cc3s2)cc1 (stereo not drawn),7.1µM*,?
CC(=O)C1=CCC(c2ccccc2)N(S(=O)(=O)c2ccc(Cl)cc2)C1 (stereo not drawn),-11%,i
Cc1ccc(C(=O)Nc2ncccc2C)o1,-10%,-12%
CCCCC(=O)N1CCc2cc(OC)c(OC)cc2C1COc1ccc(OC)cc1 (stereo not drawn),-8%,0%
CCOc1ccc(CCNC(=O)COC(=O)CCC(=O)c2cccs2)cc1OCC,-13%,-10%
CN1CCN(c2ncnc3c2c(-c2ccccc2)cn3-c2ccc(F)cc2)CC1,-13%,-14%
COc1ccc(Nc2c3c(nc4ccc(NC(=O)/C=C/c5cccc(OC)c5OC)cc24)CCCC3)cc1OC,?,?
CCC(=O)NC(=S)Nc1ccc(N2CCN(C(=O)c3ccc(Cl)cc3)CC2)cc1,-21%,-7%
Cc1cc(C)nc(N/N=C/c2ccccc2OCc2ccc([N+](=O)[O-])cc2)n1,-5%,-4%
Cc1ccc(Cl)cc1Nc1nc(-c2sc(NC(=O)c3ccco3)nc2C)cs1,?,?
C/C(CC(=O)Nc1ccc2ccccc2c1)=N\NC(=O)c1cnccn1,-13%,-30%
CC1Sc2ccc(S(=O)(=O)N3CCC(C(=O)NCc4ccco4)CC3)cc2NC1=O (stereo not drawn),-10%,-14%
Cn1cccc1C(=O)C(=O)Nc1ccccc1C(F)(F)F,-1%,i
COc1ccc(-c2nn3c(=O)cc(CN4CCN(S(=O)(=O)c5ccc(C)cc5)CC4)nc3s2)cc1,?,?
COC(=O)c1sc(N)nc1CCNC(=O)OC(C)(C)C,-7%,3%
Cc1ccc(Cn2c(SCC(=O)NCc3ccc(Cl)cc3)nc3ccsc3c2=O)cc1,-15%,-13%
CN(Cc1cc(=O)n2ccsc2n1)Cc1nc2ccccc2c(=O)[nH]1,-4%,-4%
COc1ccccc1NC(=O)c1cn(C)c(=O)c2cc(OC)c(OC)cc12,-14%,-13%
COc1ccc(C2Nc3ccccc3-c3cc(C)nn32)c(OC)c1 (stereo not drawn),0%,3%
CN(C)S(=O)(=O)c1ccc(Cl)c(C(=O)OCC(=O)NC(=O)c2cccn2C)c1,-4%,-12%
Cc1ccc(OCCn2nnc3ccccc32)cc1C,-14%,i
Nc1ccn([C@@H]2O[C@H](CNCc3ccc(OCC(=O)Nc4nccs4)cc3)[C@@H](O)[C@H]2O)c(=O)n1,7%,-13%
COc1cc(/C=N/N(C)c2ccccc2)ccc1O,-20%,-25%
CCCCc1cc(=O)oc2cc(OCC(=O)N3C[C@H]4C[C@@H](C3)c3cccc(=O)n3C4)c(Cl)cc12,-10%,-9%
Cc1ccc(-c2csc(NC(=S)NC(=O)c3ccco3)n2)cc1,-3%,-11%
COc1ccc(C(=O)OCC(=O)NCc2ccco2)cc1OC,-8%,·
NCCCN1CCN(c2ccccc2)CC1,-5%,-12%
OCCCNC(c1ccccc1)c1ccc(O)cc1 (stereo not drawn),-1%,·
COc1cccc(NC(=O)CSc2nccn(-c3ccc4c(c3)OCCO4)c2=O)c1,-14%,-6%
O=C(c1cc2ccccc2oc1=O)N1CCN(c2ccc(Cl)cc2)CC1,2%,-3%
Cc1cc(Cl)ccc1OC(C)C(=O)NCCCn1ccnc1 (stereo not drawn),-2%,-9%
O=C(Nc1ccccc1)c1cc(N2CCOCC2)nc2ccccc12,-20%,-3%
CCOC(=O)c1[nH]c2ccccc2c1NC(=O)CC(C)(C)C,-4%,-6%
COc1ccc(N2CCN(C(=O)c3ccc(NS(=O)(=O)c4ccc(F)cc4)cc3)CC2)cc1,1%,-14%
Cc1cccn2cc(CNS(=O)(=O)c3cccc(F)c3)nc12,-20%,-2%
CC(C)C[C@H]1CN=C(Nc2ccccc2)N1CC1CCC(C)CC1 (stereo partly drawn),-21%,?
Fc1ccc(-c2noc3ncnc(NCCc4ccccc4)c23)cc1,-3%,-5%
COc1cc2c(cc1OC)C(COc1ccccc1OC)N(C(=O)C(C)(C)C)CC2 (stereo not drawn),-8%,-22%
Cc1nc2ccccc2nc1SCC(=O)c1ccccc1,-26%,i
CN=C1SC(C(=O)Nc2ccccc2Cl)CC(=O)N1c1ccc(OC(F)(F)Cl)cc1 (stereo not drawn),-8%,-12%
C=CCSc1nnc(NC(=O)CCNC(=O)c2ccccc2Cl)s1,-3%,-2%
CC(=O)N/N=C/c1ccc(OCCOc2ccc(Br)cc2)cc1,28%,15%
CCOC(=O)Cc1ccc(Nc2nc(NCCOC)nc3ccsc23)cc1,-8%,-12%
COc1ccc(Cn2c(SCC(=O)N(C)Cc3ccccc3)nc3ccccc32)cc1,-4%,-20%
Cc1ccccc1Nc1cccc2nonc12,-12%,i

# The listing continues:
SMILES,Vaccinia Venus,VACV mCherry inh
CC1(C)CC2CC(C)(CN2C(=O)COC(=O)c2n[nH]c(=O)c3ccccc23)C1 (stereo not drawn),-21%,·
Cc1ccc(N=C2NC(=O)/C(=C\c3ccsc3)S2)c(C)c1,-28%,-19%
N#CCSc1ncnc2sc3c(c12)CCC3,3%,i
CCC1CN(CCNC(=O)C2CCCCN2C)Cc2cc(OC)ccc2O1 (stereo not drawn),6%,-13%
O=C(Nc1ccc(Cl)c(Cl)c1)N(CCCN1CCOCC1)Cc1cccs1,?,-10%
O=C(CN1C(=O)c2ccccc2S1(=O)=O)Nc1cc(S(=O)(=O)N2CCCCC2)ccc1Cl,0%,-11%
